StopGo RLuc: lowers the Renilla signal of an FMDV 2A StopGo reporter. HEK cells with a luciferase reporter of 2A StopGo recoding. Potency, µM (series often up to 57.5 µM), without a hit: top-dose signal change, negative = less light. 0.32% of 120,000 active. AID 1745857; active means well fitted falling curve with a large enough effect; inconclusive means small, poorly fitted or top-dose-only effect; inactive means no such curve, though single readings can be large or run the other way; further: nearly all actives have a fitted effect of over 55% in size; overnight with compound
StopGo FLuc: FMDV 2A StopGo reporter, firefly signal; Potency, µM (top dose mostly 57.5 µM), for inactives: at the highest dose signal change, negative = less light; HEK cells with a luciferase reporter of 2A StopGo recoding; 0.23% of 120,000 active; active = well fitted falling curve with a large enough effect; inconclusive = small, poorly fitted or top-dose-only effect; inactive = no such curve, though single readings can be large or run the other way; further: nearly all actives have a fitted effect of over 60% in size; overnight with compound
Starred values were filed as active, the others as inactive; ? = inconclusive; & = joins results of further samples; [ ] = dose if it differs, or a comment. On the % scale 0 is the no-effect control and ±100 the full control effect; potency means the concentration at half of the fitted maximal effect.

smiles	StopGo RLuc	StopGo FLuc
O=S(=O)(NCCc1csc2nc(-c3ccc(Cl)cc3)nn12)c1cccs1	9%	-16%
COCCCNc1nc2c(c(=O)[nH]c(=O)n2C)n1CC(O)COc1ccc(Cl)cc1 (stereo unspecified)	-13%	-15%
CCOc1ccc2nc(N3CCCC(C(=O)NCc4ccc(C)cc4)C3)sc2c1 (stereo unspecified)	-3%	13%
CCN(c1ccccc1)S(=O)(=O)c1ccc2[nH]cc(C(=O)NCc3ccc(C)cc3)c(=O)c2c1	-9%	-18%
Cc1cc2c(nc1C)sc1c(=O)n(CC(=O)N3CCOCC3)cnc12	-6%	18%
CC(C)OCCC(=O)N1CCCC(CN2CCN(c3ccccn3)CC2)C1 (stereo unspecified)	-2%	1%
COc1ccc(CNC(=O)CCC2N=C3c4ccccc4N=C(SCc4ccccc4F)N3C2=O)cc1 (stereo unspecified)	9%	24%
Cc1cc(Nc2ccccc2O)nc(C)n1	0%	-1%
O=C(/C=C/c1cccnc1)c1cc2ccc1CCc1ccc(cc1)CC2	?	?
Cc1ccccc1CN1C(=O)C(O)(CC(=O)c2ccc(F)cc2)c2cc(Cl)ccc21 (stereo unspecified)	-4%	?

Carrying on:
smiles	StopGo RLuc	StopGo FLuc
CCCOc1ccc(CNC(=O)Cn2c(=O)oc3ccccc32)cc1	-5%	3%
Cc1ccccc1-c1nc(C#N)c(NCCCN2CCOCC2)o1	21%	0%
Cc1ccccc1NC(=O)NN	57%[activator]	0%
CN(C/C=C/Cl)C1Cc2ccccc2C1	-6%	-7%
CCN1CCN(c2ccc(NS(=O)(=O)c3c(C)nc4sccn4c3=O)cc2Cl)CC1	-8%	-14%
COc1ccc(NC(=O)C2=C(C)Nc3nc(SCc4ccccc4C)nn3C2c2ccc(Br)cc2)cc1 (stereo unspecified)	-6%	-7%
NC(=O)C1CCN(C(=O)Cc2c[nH]c3ccccc23)CC1	-10%	-10%
Cc1cc2cc(NC(=O)c3cccc(C(N)=O)c3)ccc2[nH]1	-2%	92%[activator]
CC(=O)Nc1ccc(NC(=O)C2CCN(S(=O)(=O)c3ccc4c(c3)CCCC(=O)N4)CC2)cc1	-4%	-10%
COc1cccc(CNC(=O)c2cccc3ccccc23)c1	33%[activator]	7%

Carrying on.
smiles	StopGo RLuc	StopGo FLuc
Brc1ccc(-c2noc(Cc3ccccc3)n2)o1	37%	287%[activator]
Cc1cc(NC(=O)COC(=O)C2(c3ccccc3)CCCC2)no1	13%	21%
CC(C(=O)Nc1ccccc1)n1nnc2sc3c(c2c1=O)CCCC3 (stereo unspecified)	11%	1%
CCOc1ccc(S(=O)(=O)Nc2ccc(-c3cn4ccc(C)nc4n3)cc2)cc1	21%	21%
CCC(=O)Nc1ccc(S(=O)(=O)NCCn2nc(-c3ccc(F)cc3)ccc2=O)cc1	9%	11%
Cn1nnnc1SCCNCc1ccccc1Cl	-10%	11%
CC(C)n1c(Br)nc2c1c(=O)[nH]c(=O)n2C	-3%	8%
CC1(C)CC(NC(=O)CCc2ncc(-c3ccccc3)o2)CC(C)(C)N1	-12%	3%
O=C(CCCn1c2ccccc2c(=O)c2ccccc21)Nc1ccc(F)cc1Cl	-6%	-13%
CC(C)c1noc(COc2ccc(C(N)=O)cc2)n1	-2%	85%[activator]

The list continues.
smiles	StopGo RLuc	StopGo FLuc
N#Cc1ccc(CNc2cccc(Br)c2)c(F)c1	12%	0%
Cc1ccc(CNC(=O)c2ccc3c(c2)N(Cc2cccc(Cl)c2)C(=O)CS3)cc1	29%	3%
COc1ccc(N2CCN(C(=O)COc3ccccc3C#N)CC2)cc1	5%	3%
CCOc1ccc(C(=O)Nc2ccc3oc(-c4ccc(C)cc4)nc3c2)cc1[N+](=O)[O-]	-8%	39%[activator]
Cn1c(=O)c2nc(SCCC(=O)Nc3ccccc3)n(C)c2n(C)c1=O	-13%	-5%
CCOc1ccc2c(=O)c(Oc3cccc(OC)c3)c(C)oc2c1	36%[activator]	19%
COc1cccc(/C(O)=C2\C(=O)C(=O)N(c3ccccn3)C2c2cccc(Br)c2)c1 (stereo unspecified)	0%	14%
O=C(Nc1ccc(F)cc1F)c1cccc2c1C(=O)N(C1CCCCC1)C2	-1%	-8%
CN(C(=O)c1cc(-c2ccccc2)c(N2CCOCC2)s1)C1CCS(=O)(=O)C1 (stereo unspecified)	-6%[1.06 µM]	8%
CNC(=O)c1cccc(NC(=O)Cc2nc(-c3ccccc3)oc2C)c1	?	?

2 of the compounds above, with each value named.
CCOc1ccc2c(=O)c(Oc3cccc(OC)c3)c(C)oc2c1
  StopGo RLuc: 36%[activator]; StopGo FLuc: 19%

CNC(=O)c1cccc(NC(=O)Cc2nc(-c3ccccc3)oc2C)c1
  StopGo RLuc: ?; StopGo FLuc: ?

Additional entries.
smiles	StopGo RLuc	StopGo FLuc
COc1ccc(CNc2oc(COc3cccc(Cl)c3)nc2C#N)cc1	-4%	69%[activator]
CCCc1ccc(-c2cc(C(=O)NCc3cnn(C)c3)c3ccccc3n2)cc1	24%	138%[activator]
CCOc1cc(/C=C/C(=O)c2ccc(C#N)cc2)cc(Cl)c1OC	7%	-5%
COc1ccc(C(=O)C(Cl)C(=O)c2ccc(OC)cc2)cc1	77%[activator]	145%[activator]
CNc1oc(-c2cccc(C)c2)nc1S(=O)(=O)c1ccccc1	20%	1%
CC(C)C(=O)N1CCN(Cc2coc(-c3ccc(Cl)cc3)n2)CC1	?	?
COc1ccc(Nc2ncnc3c2cnn3-c2ccccc2Cl)cc1	-7%	183%[activator]
C=CCNC(=S)Nc1cc(Cl)ccc1Cl	17%	0%
CCOc1ccc(CC(=O)NCc2ccc3c(c2)CCN3C(=O)c2ccc(F)cc2)cc1OCC	-10%	-23%
CCOc1ccccc1NS(=O)(=O)c1cc(C(C)(C)C)ccc1C	259%[activator]	3%

More structures.
smiles	StopGo RLuc	StopGo FLuc
CCOc1ccc(-n2c(SCC(=O)N(C)c3ccc(F)cc3)nc3[nH]ncc3c2=O)cc1	7%	7%
COc1cc(C(=O)Nc2cc(-c3nc4ccccc4o3)ccc2C)cc(OC)c1OC	7%	0%
O=c1cc(CN2CCN(Cc3cccc(C(F)(F)F)c3)CC2)nc2ccc(Br)cn12	-12%	-14%
O=C(O)C(c1c[nH]c2ccc(Cl)cc12)N1CCN(Cc2ccc(Cl)cc2Cl)CC1 (stereo unspecified)	-11%	-7%
Cc1ccc(C)c(S(=O)(=O)NCCc2ccccc2F)c1	-51%	0%
COC(=O)c1ccc(C(=O)NCc2ccccc2C)cc1	74%[activator]	0%
CCc1ccc(-c2cc3c(=O)[nH]nc(SCC(=O)NC(C)(C)C)n3n2)cc1	-5%	22%
O=C(COC(=O)c1cc(=O)[nH]c2ccccc12)NC1CCCC1	-7%	-9%
O=C(NC1CC1)c1ccc(Sc2ccccn2)cc1	-11%	39%[activator]
COc1ccc(-c2c(C(F)(F)F)oc3cc(OC(=O)N(C)C)ccc3c2=O)cc1	-9%	19%

The list continues:
smiles	StopGo RLuc	StopGo FLuc
Fc1ccc(OCc2cc(-c3ccco3)on2)c(Br)c1	8%	-30%
CC1CCC(NC(=O)C2(c3ccccc3)CC2)CC1 (stereo unspecified)	6%	53%[activator]
CCc1ccc(NC(=O)CCS(=O)(=O)c2cc(-c3cc(C)no3)ccc2OC)cc1	19%	-6%
O=C(CN1CCCC1c1ccccc1)Nc1cccc(F)c1 (stereo unspecified)	10%	9%
CCOC(=O)C(C#N)=C(c1ccccc1)c1ccccc1	47%[activator]	-4%
CCc1nnsc1C(=O)N(C)CCOc1ccccc1F	0%	2%
N#Cc1c(NC(=O)CSc2nc3ccccc3[nH]2)sc2c1CCCCC2	?	-27%
CC(=O)N1CCCc2cc(S(=O)(=O)N(C)CC(=O)Nc3cccc(C)c3C)ccc21	0%	-10%
CC(C)(C)c1ccc(-c2nnc(SCC(=O)N3CCOC3=O)n2C2CCCC2)cc1	-13%	-4%
O=C(CSc1ncc(-c2ccc(F)cc2)o1)Nc1ccc(F)c(Cl)c1	-3%	32%[activator]

Single records, from the list above. Order of values: StopGo RLuc	StopGo FLuc
O=C(CN1CCCC1c1ccccc1)Nc1cccc(F)c1 (stereo unspecified) is listed with 10%	9%
CC(=O)N1CCCc2cc(S(=O)(=O)N(C)CC(=O)Nc3cccc(C)c3C)ccc21 is listed with 0%	-10%
CC1CCC(NC(=O)C2(c3ccccc3)CC2)CC1 (stereo unspecified) is listed with 6%	53%[activator]
N#Cc1c(NC(=O)CSc2nc3ccccc3[nH]2)sc2c1CCCCC2 is listed with ?	-27%

The listing continues.
smiles	StopGo RLuc	StopGo FLuc
CCN1CCN(c2ccc(S(=O)(=O)N(CC)CC)cc2NC(=O)c2ccc(F)cc2)CC1	-10%	-22%
Cc1ccc(C2c3cccn3CCN2S(=O)(=O)c2ccc([N+](=O)[O-])cc2)cc1 (stereo unspecified)	38%[activator]	-4%
CCCC1=Nc2cc(C(=O)NCc3ccc(OC)cc3)ccc2Sc2ccc(C)cc21	139%[activator]	35%[activator]
CC(=O)c1ccc(C(=O)N(Cc2cccnc2)c2nc3c(C)c(C)ccc3s2)cc1	-27%&11%	?
O=C(Nc1ccc(Cl)cc1Cl)c1cnc2ccccc2n1	0%	140%[activator]
Cc1ccc(NC(=O)Cn2c(=O)n(Cc3ccc4c(c3)OCO4)c(=O)c3ccc(C(=O)NC4CCCCC4)cc32)cc1	1%	-12%
N#CC1(NC(=O)CSc2ccc3c(c2)OCCCO3)CCCC1	4%	4%
CCOC(=O)c1ccc(NC(=O)CSc2c3c(nc4cc(Cl)ccc24)CCCC3)cc1	0%	42%[activator]
Cc1ccc(C)c(-n2nnnc2SCc2nc3ccccc3o2)c1	53%[activator]	0%
CCCOc1ccc(-c2nc3ccccc3c(=O)o2)cc1	-6%	281%[activator]

New compounds follow.
Each structure is followed by: StopGo RLuc	StopGo FLuc
COc1ccc(OC)c(NC(=O)N2c3ccccc3Sc3ccccc32)c1
  -8%	5%
CCOC(=O)c1c(NC(=O)c2ccc(S(=O)(=O)N(C)C3CCCCC3)cc2)sc2c1CCN(C(C)C)C2
  59%[activator]	3%
Cc1cccc(NC(=O)C2(c3ccccc3)CCCC2)c1
  4%	-13%
COc1ccc(CCNc2oc(COc3ccccc3F)nc2C#N)cc1
  0%	12%
O=C(O)C1CCC(CNCc2cccc(Br)c2)CC1 (stereo unspecified)
  6%	7%
COc1ccc(OC)c(NC(=O)NC(C)C(=O)N2CCc3ccccc32)c1 (stereo unspecified)
  6%	9%
COc1ccc(CCN(C)Cc2cc(C(C)(C)C)c(O)c(C(C)(C)C)c2)cc1OC
  19%	56%[activator]
CCc1cccc(CC)c1N(COC)C(=O)Cn1c(CC)nc2ccccc21
  2%	16%
COc1ccc(C(C)=O)cc1CSc1nc(NCc2ccc(Cl)cc2)c2ccccc2n1
  70%[activator]	-17%
CCOc1ccc(OCCSc2nc3cc(S(=O)(=O)N(C)C)ccc3o2)cc1
  ?	?
COCC(=O)NC1CCN(c2ccccc2S(=O)(=O)C(F)(F)F)CC1
  6%	9%
Cc1noc(C)c1S(=O)(=O)N1CCC(C(=O)N2CCN(c3ccccc3)CC2)CC1
  -11%	5%
O=C(Nc1ccc(Cl)cc1)C1CCN(c2ncnc3nc[nH]c23)CC1
  -7%	-1%
Cc1ccc(-n2ncc3c(NC4CCCC4)ncnc32)cc1Cl
  -9%	63%[activator]
CC1CN(c2ccc(F)cc2)c2nc3c(c(=O)[nH]c(=O)n3C)n2C1 (stereo unspecified)
  -12%	3%

Other entries follow:
Each structure is followed by: StopGo RLuc	StopGo FLuc
CC(=O)c1ccc(OC(=O)c2nn(C(C)C)c(=O)c3ccccc23)cc1
  -7%	0%
CCCNC(=O)c1ccc(C(=O)OC)cc1
  3%	28%
COc1cccc(-c2nc(N(C)C3CCCCC3)c3ccccc3n2)c1O
  2%	19%
CCOC(=O)COc1ccc2c(=O)c(-c3ccc(OC)cc3)c(C(F)(F)F)oc2c1
  -4%	-3%
Cn1c(=O)c2[nH]c(CN3CCN(c4cccc(Cl)c4)CC3)nc2n(C)c1=O
  -1%	0%
Cc1ccc(N=Cc2ccccc2[N+](=O)[O-])c(C)c1
  1%	15%
CC1(C)NC(=O)N(CCCC(=O)Nc2cnc3ccccc3c2)C1=O
  1%	88%[activator]
Cc1cc(-c2cc(C(=O)Nc3ccccc3)c3c(C)noc3n2)c(C)s1
  -6%	-8%
CCC1(C(O)(C#CCN2CCCCC2)c2ccccc2)CCCC1 (stereo unspecified)
  37%[activator][1.06 µM]	-19%
CCn1cc(C(=O)N2CCN(c3ccccc3F)CC2)c(=O)c2cc(S(=O)(=O)N(C)C3CCCCC3)ccc21
  1%	-8%
COc1cccc(CNC(=O)COc2ncnc3ccccc23)c1
  -3%	-5%
O=C(CN1CCCc2ccc(F)cc21)Nc1cccc2nsnc12
  -7%	-2%
O=C(Cn1cc(S(=O)(=O)Cc2ccc(F)cc2)c2ccccc21)NCCc1ccccc1
  -12%	8%
CC(C(=O)NCc1ccccc1Cl)n1ccc2cc(S(=O)(=O)N3CCCCC3)ccc21 (stereo unspecified)
  73%[activator]	-18%
CN(c1ccc(OCC(=O)N2CCN(c3ncccn3)CC2)cc1)S(=O)(=O)c1cccs1
  ?	?

(continued)
Each structure is followed by: StopGo RLuc	StopGo FLuc
CC[C@@H]1CC2C3CCC4=C/C(=N/O)CC[C@]4(C)C3CC[C@]2(C)[C@H]1/C(C)=N/O (stereo partly specified)
  -4%	21%
Fc1cccc(-c2nc(CN3CCOCC3)co2)c1
  1%	131%[activator]
CCn1c(SCC(=O)NCc2ccc(OC)c(OC)c2)nnc1-c1cccs1
  -7%	-2%
COCCCNC(=O)CSc1nc2nc(C)c(Cc3ccccc3Cl)c(C)n2n1
  -16%	-16%

Source: PubChem BioAssay

Some of the compounds tested. The share of hits here may be higher or lower than overall.
